Screens from PubChem BioAssay.
HCMV NEC inh: disrupts HCMV UL50-UL53 complex binding | HTRF UL50-UL53 interaction, normalized percent inhibition | inhibition, % (concentration not given with the values) | AID 1918969 | 190,000 compounds, 0.15% hits;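 active = both replicates at 50% or more, plus weaker picks with an unusually low signal ratio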;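 also: stock transfer was 100 nL into about 20 µL; 0% = negative control wells and 100% = wells with untagged competitor protein; inactives centre near -12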
GIV Gai3 FP: inhibitors of GIV GBA-motif binding to rat Galpha-i3; P08753; Galpha-i3/FITC-GIV peptide fluorescence polarization, 90 min; stronger effect = lower value; scaled: aluminum fluoride 0%, vehicle 100%; percent of control (FP), % (test concentration not listed); 210,000 compounds, 0.42% hits; AID 1224905;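 active = replicate mean at 85% of control or lower, very high polarization wells dropped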;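 also: wells of about 15 µL received 100 nL stock; the first replicate is given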
Target sequence (P08753 whole entry, looked up): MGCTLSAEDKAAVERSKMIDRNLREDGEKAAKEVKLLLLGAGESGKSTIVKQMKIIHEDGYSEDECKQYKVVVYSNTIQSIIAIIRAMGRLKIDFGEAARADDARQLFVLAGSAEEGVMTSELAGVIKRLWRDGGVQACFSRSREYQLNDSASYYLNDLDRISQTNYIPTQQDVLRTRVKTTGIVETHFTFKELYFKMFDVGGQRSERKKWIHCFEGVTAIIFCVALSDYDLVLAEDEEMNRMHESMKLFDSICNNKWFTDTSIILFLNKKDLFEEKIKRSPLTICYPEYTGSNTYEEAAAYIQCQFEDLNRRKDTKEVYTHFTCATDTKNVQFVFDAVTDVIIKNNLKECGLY
Sa growth inh: blocks Staphylococcus aureus growth. S. aureus RN4220 growth, OD600, 20 h, 42 °C; stronger effect = lower value. relative growth, % (concentration not given with the values). 170,000 compounds, 0.53% hits. AID 720641;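 active = growth at 42 °C up to 50% and 20 or more points under that at 30 °C, or under 10% at both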;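 also: 300 nL library stock went into each well; scaled to the means of positive and negative controls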
Sa growth inh second temp: recorded beside Sa growth inh, whose call it bears; relative growth, %; measured here: growth at 30 °C;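 optical density after 20 h as mean of two plates; 100% = untreated growth and lower means inhibition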
The depositor's hits bear a star; / = no result given; & = joins results of further samples.

SMILES	HCMV NEC inh	GIV Gai3 FP	Sa growth inh	Sa growth inh second temp
CC(C)Oc1ccc(CNC(=O)Cn2c(=O)oc3ccccc32)cc1	-15	101	104	69
CC(C)CNC(=O)c1ccc2c(=O)n(CC(C)C)c3nn(CC(=O)NC(C)C)c(=O)n3c2c1	-10	105	/	/
Cc1ccc(S(=O)(=O)CCC#N)cc1C	-3	96	105	103
CCOc1ccc(NC(=O)c2cc3c(=O)n4cccc(C)c4nc3s2)cc1	-35	105	99	93
CC(=O)N1CCC(N(Cc2ccco2)C(=O)NC23CC4CC(CC(C4)C2)C3)CC1	-32	101	107	96
C=CCSc1nnc(-c2ccc(C(C)(C)C)cc2)n1Cc1ccco1	-14	107	8.7*	28*
COc1ccc(NS(=O)(=O)/C=C/c2ccccc2)cc1	20	/	133	105
COc1cccc(C(=O)Nc2noc3ccccc23)c1	-1&-24	102&97	87	76
COc1cc(-c2nnc(SCC(=O)Nc3ccc(F)c(Cl)c3)o2)cc(OC)c1OC	8	99	94	89
CC(C)n1cnc2nc(CSc3ccccc3NC(=O)CCC3CCCC3)cc(=O)n21	-25	96	/	/
O=c1cc(CNc2ccc(Br)cc2)nc2nc(NCc3ccccc3)[nH]n12	-28	97	/	/
COc1cc(OC)c(Nc2nc3ccccc3n3cnnc23)cc1Cl	-4	104	86	92
COc1cccc(N2CCN(C(=O)c3cc(S(=O)(=O)N4CCCCC4)cn3C)CC2)c1	-3	109	/	/
CN1C(=O)Cc2ccccc21	-3	101	86	102
CCc1nn(C(C)C(=O)N2CCN(c3ccccc3)CC2)c(=O)c2cc3occc3n12 (stereo unspecified)	-3	105	108	84
CC1(C)OC(=O)C(=CNC(C(=O)O)c2ccccc2)C(=O)O1 (stereo unspecified)	-19	102	92	88
COc1ccc(Nc2nc(C)c3nnn(-c4ccc(OC)c(Cl)c4)c3n2)cc1Cl	-10	101	/	/
CS(=O)(=O)c1sc(C(=O)NC(=S)Nc2ccc(OC(F)(F)F)cc2)c2c1C=CCC2	-10	96	100	92
Cc1cc(-c2ccc(C)c(S(=O)(=O)CCC(=O)N3CCc4ccccc4C3)c2)on1	-20	110	/	/
CCOc1cccc(NC(=O)c2cc3c([nH]c2=O)CC(C)(C)CC3=O)c1	5	100	/	/
CC1CC(C)CN(C(=O)CSc2nnc(-c3ccccc3)o2)C1 (stereo unspecified)	-1	111	97	63
COc1ccc2c(c1)c(=O)c(C(=O)c1ccc(F)cc1)cn2CC(=O)Nc1ccc2c(c1)OCCO2	-13	109	103	72
COc1cc(OC)c(-c2nc(-c3ccccc3)c(-c3cccs3)[nH]2)cc1OC	/	113	104	86
CC(=O)Nc1ccc(Oc2nnc(-c3ccccc3)c3ccccc23)cc1	-26	104	/	/
COc1ccccc1OCC(=O)NCC(c1ccc(Cl)cc1)N1CCCCC1 (stereo unspecified)	-26	103	110	88
O=C(NCCc1ccc(O)c(O)c1)C(F)(F)F	2	/	97	101
CC(C)(C)NC(=O)c1ccc2nc(CCc3ccccc3)oc2c1	/	100	74	90
Cc1cc(NC(=O)Nc2ccc3c(c2)OCCO3)c(C(F)(F)F)o1	-14	100	97	88
Cc1ccccc1C(=O)Nc1c(C(=O)N2CCOCC2)oc2ccccc12	-1	108	88	101
Cc1cc(C)nc(SCC(=O)Nc2nc(=O)c3ccccc3s2)n1	-9	99	120	106

The closing 5 entries of the section above open the next one.
SMILES	HCMV NEC inh	GIV Gai3 FP	Sa growth inh	Sa growth inh second temp
O=C(NCCc1ccc(O)c(O)c1)C(F)(F)F	2	/	97	101
CC(C)(C)NC(=O)c1ccc2nc(CCc3ccccc3)oc2c1	/	100	74	90
Cc1cc(NC(=O)Nc2ccc3c(c2)OCCO3)c(C(F)(F)F)o1	-14	100	97	88
Cc1ccccc1C(=O)Nc1c(C(=O)N2CCOCC2)oc2ccccc12	-1	108	88	101
Cc1cc(C)nc(SCC(=O)Nc2nc(=O)c3ccccc3s2)n1	-9	99	120	106
O=C(CSc1nc(C2CC2)nc2ccccc12)N1CCCCC1	-22	98	102	84
CCCc1ccc(S(=O)(=O)N2CCN(Cc3nc4ccccc4o3)CC2)cc1	0	112	/	/
Cc1ccc(NC(=O)N2CCC3(CC2)CC(=O)c2ccccc2O3)cc1Cl	-3	100	/	/
CC1=C(c2ccccc2)S(=O)(=O)NC1=NC1CCCCC1C (stereo unspecified)	-4	101	84	87
Cc1ccc(N2COc3ccc4c5c(c(=O)oc4c3C2)CCC5)cc1	9	101	96	100
Cc1ccc(NC(=O)COc2ccccc2C(N)=O)cc1F	-5	/	86	100
CCOc1ccc(N2CC(C)Cn3c2nc2c3c(=O)n(CC(=O)O)c(=O)n2C)cc1 (stereo unspecified)	-3	107	99	90
CCOC(=O)C1=C(C)NC(=O)NC1c1cn(-c2ccccc2)nc1-c1ccc(OC)c(Br)c1 (stereo unspecified)	-10	116&112	/	/
CS(=O)(=NS(=O)(=O)c1ccc(Cl)s1)c1ccccc1 (stereo unspecified)	-15	101	97	89
CCOC(=O)c1cnc2c(OC)cccc2c1Nc1cc(OC)ccc1OC	-61	103	/	/
CC(=O)Oc1cn(OC(C)=O)c2ccc(Br)cc12	-4	106	96	86
Cc1nn(C)c(C)c1CCN(C)C(=O)Nc1ccccc1Cl	1	107	/	/
O=S1(=O)N=C(N2CCc3ccccc3C2)c2ccccc21	-15	/	92	86
Cc1cc(OCC(=O)NCc2ccco2)c(C)cc1Br	0	108	93	97
N#Cc1c(C(F)(F)F)nc(=O)n2ccccc12	-90	/	85	89
CCOC(=O)c1ccccc1NC(=O)c1nn(-c2ccc(C)cc2)c(=O)n(C)c1=O	-41	102&102	108	104
CCC(CO)NC(=O)c1cn(-c2ccccc2)nc1-c1ccc(Cl)cc1 (stereo unspecified)	-18	/	120	86
CCCCC(=O)NCc1ccc(F)cc1	-10	102	105	95
CC(C)c1cc(C(C)C)c(S(=O)(=O)NCc2ccccc2)c(C(C)C)c1	/	98	83	72
C=CCn1cc(C(=O)NCC(OC)OC)c(=O)c2cc(S(=O)(=O)N3CCC(C)CC3)ccc21	-6	104	116	92
COc1ccc(Br)cc1/C=N/n1cnnc1	4	112	100	94
CC(C)c1ccc(NC(=O)C(C)N(c2ccccc2)S(C)(=O)=O)cc1 (stereo unspecified)	-7	102	107	87
CC(C)C(NS(=O)(=O)c1cccc2nsnc12)C(=O)O (stereo unspecified)	-107	102	97	96
CC(C)(C)NC(=S)Nc1cc(C(F)(F)F)ccc1N1CCCCC1	4	108	68	61
Oc1ccc(-n2ccnc2)cc1	-18	/	75	89
Cc1cccc(-c2nc(CSCC(=O)NCCc3ccc(Cl)cc3)c(C)o2)c1	-36	105	103	93
Cc1cn2c(=O)cc(COc3ccccc3NC(=O)C(C)Oc3ccccc3)nc2s1 (stereo unspecified)	-17	103	/	/
O=C(Cn1cnc2c(nnn2-c2cccc(Cl)c2)c1=O)N1CCCc2ccccc21	/	94	84	93
CC(C)C(=O)Nc1c(C(=O)Nc2ccc3c(c2)OCO3)oc2ccccc12	-1	101	110	102
O=C(NCC1CCCO1)N1CCN(Cc2nc3ccccc3o2)CC1 (stereo unspecified)	-29	111	/	/

Two entries picked at random from those above, as already listed:
SMILES	HCMV NEC inh	GIV Gai3 FP	Sa growth inh	Sa growth inh second temp
CCOc1cccc(NC(=O)c2cc3c([nH]c2=O)CC(C)(C)CC3=O)c1	5	100	/	/
CCC(CO)NC(=O)c1cn(-c2ccccc2)nc1-c1ccc(Cl)cc1 (stereo unspecified)	-18	/	120	86

Complete entries as entered above.
Cc1cc(NC(=O)Nc2ccc3c(c2)OCCO3)c(C(F)(F)F)o1 as listed: HCMV NEC inh = -14; GIV Gai3 FP = 100; Sa growth inh = 97; Sa growth inh second temp = 88
CCOc1cccc(NC(=O)c2cc3c([nH]c2=O)CC(C)(C)CC3=O)c1 as listed: HCMV NEC inh = 5; GIV Gai3 FP = 100; Sa growth inh = /; Sa growth inh second temp = /
CC(C)(C)NC(=O)c1ccc2nc(CCc3ccccc3)oc2c1 as listed: HCMV NEC inh = /; GIV Gai3 FP = 100; Sa growth inh = 74; Sa growth inh second temp = 90

(next part)
SMILES	HCMV NEC inh	GIV Gai3 FP	Sa growth inh	Sa growth inh second temp
O=C(NCCO)c1nc(-c2ccccc2)n(-c2ccccc2)n1	-19	96	/	/
N/C(=N\C(=S)Nc1cc(Cl)ccc1Cl)c1ccccc1	-22	102	84	76
COC(=O)c1c(N)oc2c(-c3ccc(C)cc3)c3c(C(=O)OC)c(N)oc3cc12	-24	99	95	90
CCc1ccc(NC(=O)C2CCCN(S(=O)(=O)c3ccc(F)cc3)C2)cc1 (stereo unspecified)	-22	99	92	86
Cc1ccc(-n2nc(C)c3c(C(F)(F)F)cc(-c4cccnc4)nc32)cc1C	-16	101	105	86
COc1ccc(OC)c(NC(=O)Cn2c(=O)n(Cc3ccccc3)c(=O)c3ccccc32)c1	14	105	114	91
O=C(Cn1nnc2ccccc21)N/N=C1\CC(c2ccccc2)Oc2ccccc21 (stereo unspecified)	-14	/	116	91
CN1C(=O)S/C(=C\c2ccc(-c3ccc(C(=O)O)c(Cl)c3)o2)C1=O	/	115	115	67
CCOc1ccc(C(=O)N(Cc2ccc(C(C)C)cc2)Cc2ccco2)cc1	-30	101	80	68
CS(=O)(=O)/C(C#N)=C/c1ccc(OCc2cc(F)cc(F)c2)cc1	-4	100	102	77
Cc1nn(C)c(C)c1CN(C)C(=O)c1cnn2c(C(F)F)cc(-c3ccccc3)nc12	-43	102	/	/
Cc1ccc(-c2nc(C(=O)N(C)c3cc(C)ccc3C)c3n2CCCCC3)cc1	/	97	103	84
COc1ccc(C2Sc3ccccc3N2S(C)(=O)=O)cc1 (stereo unspecified)	-7	103	91	103
COc1cc(NC(=O)C(CC(C)C)NS(=O)(=O)c2ccc3c(c2)CCCC(=O)N3)cc(OC)c1 (stereo unspecified)	/	102	73	87
CCSc1nn(CC(=O)Nc2ccc(C)c(Cl)c2)c(N)c1S(=O)(=O)c1ccc(OC)cc1	-13	104	/	/
CC1CCC(NC(=O)C2(C)Cn3c(cc4occc43)C(=O)N2CCCN(C)Cc2ccccc2)CC1 (stereo unspecified)	-18	103	/	/
CC1CN=C(c2cccn2Cc2ccc(F)cc2)O1 (stereo unspecified)	-20&-22	99&102	89	93
COc1ccccc1NC(=O)C(C)Sc1nnc2ccc3ccccc3n12 (stereo unspecified)	-37&3	102&99	97	86
CCC(=O)n1nc(C)c(S(=O)(=O)N2CCOCC2)c1C	-26	105	/	/
CN(CCC#N)C(=O)c1cc(-c2cccs2)nc2ccccc12	-2	/	94	97
CN(C)Cc1c(O)ccc2c(=O)c(-c3ccccc3Cl)coc12	-4	100	98	90
Cc1ccc(C)c(S(=O)(=O)n2nnc3ccccc32)c1	-12	100	88	85
COc1ccc(CC(NC(C)=O)C(=O)O)c(Cl)c1OC (stereo unspecified)	4	109	105	105
COc1cc(OC)cc(-c2noc(CCCn3c(=O)[nH]c4cc5c(cc4c3=O)OCO5)n2)c1	0	103	/	/
COc1ccc(OC)c(S(=O)(=O)c2cc3ccccc3oc2=O)c1	/	102	89	94
Cc1c(C)c(C)c(CSc2cccc(NC(=O)/C=C/C(=O)O)c2)c(C)c1C	-43	103	112	89
CN(C(=O)CSc1nc2ccccc2n1Cc1cccc(C(F)(F)F)c1)c1ccccc1	/	103	100	94
COc1ccc(Nc2ncnc3c2cnn3-c2cc(Cl)ccc2C)cc1OC	/	100	88	76
COc1ccc(OC)c(N=C(N)N=C(N)N)c1	-2	106	94	101
CC1CCN(C(=O)CSc2nnc(-c3ccccc3F)o2)CC1	-37	99	/	/
COC(=O)C(Cc1ccccc1)NC(=O)c1ccc(C#N)cc1 (stereo unspecified)	-6	/	82	95
Cc1cccc(C(=O)Nc2ccc(N3CCCC3)c(NC(=O)Nc3ccc(Cl)cc3)c2)c1	-34	101	/	/
CCCS(=O)(=O)N1CC(=O)N(c2ccc(C)c(F)c2)C(C)(C(=O)NC2CCCCC2)C1 (stereo unspecified)	-20	100	/	/
Cc1noc(C)c1C(=O)O/N=C(\N)Cn1ccc(C(F)(F)F)n1	-27	105	95	90
CCCCNS(=O)(=O)c1cnn(CC)c1	-10	105	98	102
COc1ccc(Cl)cc1C(=O)CSc1cc(C)c2ccccc2n1	21	/	114	92
CNC(=O)Cn1c2ccccc2c2nc(=O)cc(C)n21	4	102	103	93
O=C(NCc1ccccc1Cl)C(Cc1ccccc1)n1cccc1 (stereo unspecified)	/	101	97	83
CCc1cccc(NC(=O)Cn2c(=O)n(CCC(=O)NCc3ccccc3Cl)c(=O)c3sccc32)c1	-5	101	89	83
CC(Oc1cc(Cl)ccc1Cl)C(=O)N1CCc2ccccc21 (stereo unspecified)	1	105	96	59
CCCCn1c(CNC(=O)c2ccco2)nnc1SC(C)C(=O)Nc1sc2c(c1C(=O)OCC)CCC2 (stereo unspecified)	6	108	103	100
O=C(CCC(=O)c1cccs1)Nc1ccc2c(c1)OCO2	-3	/	92	96
CC(C)(C)CC(C)(C)NC(=O)c1ccccc1	-19	110	117	92
COC(=O)N1c2ccccc2C=CC1C#N (stereo unspecified)	/	104	96	90
CCOC(=O)c1cnn(-c2ccccc2)c1NC(=O)Nc1ccccc1	-30	107	95	89
O=C(Cn1cnc2c(nnn2Cc2ccccc2)c1=O)N1CCCC1	30	108	103	98
